Beta cell apopt: beta cell apoptosis inhibition; INS-1E cytokine-induced death, ATP luminescence, 48 h; percent of positive-control rescue, neutral wells zero; protection from apoptosis, % (concentration not given with the values); actives 0.8% (n = 300,000);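 active = all replicates at 75% or more, or half of them and the mean; inconclusive = half reach 75% but not the mean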;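 also: 0% = cytokine-treated negative control wells and 100% = positive control rescue; higher means more ATP so stronger rescue from cytokine killing; wells of about 40 µL received 100 nL stock; the first replicate is given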
AF4-AF9 inh: MLL-AF4/AF9 protein interaction inhibition. AID 651704. P42568. inhibition, % at 10 µM. AlphaScreen, biotin-AF4 peptide binding to FLAG-AF9. actives 0.47% (n = 350,000);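 active = every replicate reaching a set inhibition limit, whatever the replicate mean, cut at about 25% in these data; inconclusive = mean inhibition reaches that limit but some replicates miss it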;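 also: 0% = plate neutral control median and 100% = total signal loss; the record names both 10 and 1 µM as test concentration; the first replicate is given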
Target sequence (P42568 whole entry, looked up): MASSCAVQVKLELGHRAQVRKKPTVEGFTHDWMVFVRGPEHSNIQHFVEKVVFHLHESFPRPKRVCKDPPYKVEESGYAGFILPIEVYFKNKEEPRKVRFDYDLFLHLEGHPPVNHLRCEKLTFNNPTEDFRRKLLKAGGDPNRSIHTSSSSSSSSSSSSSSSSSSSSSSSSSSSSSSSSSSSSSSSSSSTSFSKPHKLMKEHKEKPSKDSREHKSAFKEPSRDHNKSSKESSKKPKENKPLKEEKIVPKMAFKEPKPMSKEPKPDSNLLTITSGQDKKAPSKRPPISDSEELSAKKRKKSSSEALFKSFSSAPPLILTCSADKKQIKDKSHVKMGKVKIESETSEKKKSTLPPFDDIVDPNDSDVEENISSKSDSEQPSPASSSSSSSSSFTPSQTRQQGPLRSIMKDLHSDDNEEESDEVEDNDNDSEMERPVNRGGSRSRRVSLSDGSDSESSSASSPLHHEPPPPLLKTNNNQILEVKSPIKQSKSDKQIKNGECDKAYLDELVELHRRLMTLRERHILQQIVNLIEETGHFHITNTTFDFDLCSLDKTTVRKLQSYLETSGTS
FGF22 binding: FGF22 (human) thermal shift binding; recombinant FGF22 thermal shift, SYPRO orange fluorescence; percent of sucrose octasulfate shift, DMSO zero; calls only at 9.99 µM; actives 1.5% (n = 340,000); AID 651658;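 active = melting point raised past a set limit in the mean and every replicate; inconclusive = no clear call; three in four hits are not shown here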
Target sequence (Q9HCT0 whole entry, looked up): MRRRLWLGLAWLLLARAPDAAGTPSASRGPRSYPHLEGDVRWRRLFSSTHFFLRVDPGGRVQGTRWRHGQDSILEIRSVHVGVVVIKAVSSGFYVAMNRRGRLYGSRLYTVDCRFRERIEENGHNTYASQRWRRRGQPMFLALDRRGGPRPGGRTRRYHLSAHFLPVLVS
ALR inh: human ALR oxidase inhibition via reduced H2O2 | purified ALR, DTT oxidation, H2O2 HRP-luminol luminescence | inhibition, % (test concentration not listed) | actives 3.8% (n = 290,000);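 active = mean and each replicate at 75% or more; inconclusive = only one of the two met; inactive = neither met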;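 also: stock transfer was 7.5 nL into about 7.5 µL; 0% = neutral wells and 100% = wells with inactivated enzyme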
Target sequence (P55789 whole entry, looked up): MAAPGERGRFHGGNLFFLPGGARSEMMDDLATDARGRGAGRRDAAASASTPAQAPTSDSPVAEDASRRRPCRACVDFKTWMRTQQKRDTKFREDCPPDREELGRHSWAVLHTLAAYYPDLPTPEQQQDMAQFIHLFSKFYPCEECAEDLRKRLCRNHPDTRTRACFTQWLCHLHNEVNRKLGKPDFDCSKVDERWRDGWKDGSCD
Calb FLC: affects C. albicans growth with fluconazole | C. albicans CaCi-2 (fluconazole-resistant clinical isolate) + fluconazole, Alamar Blue growth, 48 h | growth inhibition, % (concentration not given with the values) | actives 0.57% (n = 300,000) | AID 1979;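 active = most replicates above 75%; inconclusive = exactly half above 75%; inactive = most below 75%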;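 also: all wells also contain fluconazole at 8 µg/ml as a sub-toxic cotreatment; 0% = median of DMSO wells and 100% = median of geldanamycin control wells; wells of about 8 µL received 7.5 nL stock; the first replicate is given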
RanGTP-Imp inh: disruptors of Ran-importin-beta complex formation – biochemical, FRET, CFP-Ran, YFP-importin-beta, homogeneous, primary screen; cell-free CFP-Ran/YFP-importin-beta FRET ratio; inhibition, % (test concentration not listed); actives 1.1% (n = 300,000);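 active = most replicates above 15%; inconclusive = exactly half above 15%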;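 also: 0% = DMSO wells and 100% = Ran loaded with GDP instead of GTP; wells of about 40 µL received 100 nL stock; the first replicate is given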
Ecoli rRNA inh: inhibits bacterial ribosomal RNA function over humanized ribosomes; E. coli WT GFP vs humanized-ribosome RFP mutants, fluorescence, 24 h; hits give low values; DMSO median 0, no signal -100; GFP signal change (wild-type ribosome), % (concentration not given with the values); actives 1.6% (n = 350,000);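 active = significant combined selectivity score with lowered wild-type GFP, culture density cut under 30%, mutant RFP and density less affected; inactive = any of these conditions unmet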; also: one replicate is shown; some compounds called inactive have numbers as strong as hits
T cruzi inh: T. cruzi replication inhibition | inhibition, % (no concentration beside the values) | T. cruzi beta-gal in NIH3T3, luminescence, 90 h | actives 1.4% (n = 300,000);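 active = mean inhibition across valid replicates above about 55%, limit read from the data; inconclusive = mean below that limit but half or more replicates reach it; inactive = mean below it, under half of replicates reach it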;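 also: signal also drops with host cell toxicity which is not excluded here; 0% = plate median of DMSO wells and 100% = zero luminescence signal; higher percent means less beta-gal luminescence so fewer parasites; stock transfer was 50 nL into about 50 µL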
Ecoli rRNA inh OD600: also measured in Ecoli rRNA inh; calls as there; OD600 change, %; measured here: OD600 growth;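 optical density of the mix in the first replicate; 0 = DMSO median and -100 = no signal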
Ecoli rRNA inh RFP: also measured in Ecoli rRNA inh; calls as there; RFP signal change, %; measured here: RFP humanized mutant strains;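 first replicate; 0 = DMSO median and -100 = no signal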
Active calls of the source: *; i = inactive; ? = inconclusive; . = not tested or not shown.

Molecule	Beta cell apopt	AF4-AF9 inh	FGF22 binding	ALR inh	Calb FLC	RanGTP-Imp inh	Ecoli rRNA inh	Ecoli rRNA inh OD600	Ecoli rRNA inh RFP	T cruzi inh
CCCC(/C=C/c1ccc(OC(C)=O)cc1)=C1/c2ccccc2C(=O)N1c1ccccc1	-3	.	i	-10	.	.	-8	-28	-21	.
COc1ccc(/C=C(/NC(=O)c2ccc(C)cc2)C(=O)NCC2CCCO2)cc1 (stereo not drawn)	-6	-0.2	i	0	-57	-0.6	11	7	2.0	-5
Cc1nc2cccc(C)n2c(=O)c1Cl	-3	.	.	-3	-4	2.0	.	.	.	-1
COc1ccccc1CC1(C)NC(=O)N(CC(=O)N2CC(C)OC(C)C2)C1=O (stereo not drawn)	-1	.	.	0	0	4.5	.	.	.	-6
CCCn1c(N)c(C(=O)CSc2nnc(-c3c[nH]c4ccccc34)n2C2CC2)c(=O)[nH]c1=O	0	-0.8	i	.	.	.	10	10	1.5	.
CN(CC(=O)Nc1nc2ccccc2s1)S(=O)(=O)c1ccc(Cl)cc1	1	.	.	-6	-6	-2.8	.	.	.	8
CC1CCC(NC(=O)COc2ccc(C(=O)c3ccccc3)cc2)CC1 (stereo not drawn)	1	-1.7	i	-3	-3	-1.2	6	2	2.4	-11
Cc1ccccc1N1C(=O)[C@@H]2Cc3ccccc3CN2C1=O	0	.	.	-13	-13	7.5	.	.	.	-6
CC(OC(=O)CNC(=O)c1ccc2c(c1)OCO2)C(=O)NCCC1=CCCCC1 (stereo not drawn)	-3	.	.	-5	-4	2.3	.	.	.	1
CCCCC(=O)Nc1ncc2c(n1)CC(C)(C)CC2=O	0	.	.	-8	2	-0.5	.	.	.	-1
COc1cc(OC)cc(C(=O)N2CCN(Cc3ccc4c(c3)OCO4)CC2)c1	-15	1.5	i	-10	-17	0.2	1	-12	-0.7	1
Cc1nnc(SCc2ccccc2C#N)n1-c1ccccc1	-7	.	.	-3	-1	-3.9	.	.	.	-10
Cc1cccc2nc(CSc3nc4ccc([N+](=O)[O-])cc4[nH]3)cn12	-10	-4.4	i	-30	4	1.8	5	8	-3.6	-5
CCc1cc(=O)oc2cc(OCC(=O)N3CCC[C@H]3C(=O)O)ccc12	-3	-4.6	i	-3	-4	0.9	.	.	.	-3
COc1ccc(N(CC(=O)NCc2ccccc2Cl)S(=O)(=O)c2c(C)n[nH]c2C)cc1	-5	5.7	i	-3	11	0.5	-4	0	3.7	12
CC1CCN(C(=O)COC(=O)c2cc([N+](=O)[O-])ccc2N2CCOCC2)CC1	-1	1.9	i	-10	-2	.	8	10	-0.2	5
CCOc1ccc(NC(=O)CN(C)C(=O)CSCc2c(C)noc2C)cc1OCC	1	-0.3	i	-8	-1	-0.1	2	0	-2.0	-3
COc1ccc(-c2noc(CCC(=O)Nc3cc(OC)ccc3OC)n2)cc1	-4	.	.	-3	-2	3.1	.	.	.	6
CCOC(=O)C1=C(c2ccccc2)OC(N)=C(C#N)C1c1ccncc1 (stereo not drawn)	-2	-1.8	i	5	13	2.0	10	3	-0.3	-28
CC(OC(=O)CCc1nc2ccccc2c(=O)[nH]1)C(=O)Nc1ncc(Cl)cc1Cl (stereo not drawn)	0	-2.8	i	7	-2	-1.1	12	10	1.6	-13
CCOc1ccccc1C(=O)OCC(=O)NCC1CCCCC1	1	-21	i	-2	-2	.	-12	-11	1.4	6
COC(=O)c1cc(Br)ccc1OC(=O)c1cccnc1	-6	.	.	54	-7	4.0	.	.	.	-5
O=C(COC(=O)c1nc(Cl)ccc1Cl)NNC(=O)c1ccccc1	4	-2.3	.	-10	0	-0.8	8	4	-1.5	-9
COc1ccc(Oc2coc3cc(OC(=O)N4CCOCC4)ccc3c2=O)cc1	1	3.2	i	-2	-29	-0.7	0	-8	-10	-9
CCOc1ccc(CCNC(=O)C2=C(C)C(=O)OC23CCC(C)CC3)cc1 (stereo not drawn)	-5	-1.5	i	3	13	1.1	-3	4	-1.7	11

Among those listed so far, these have a cyano group:
Molecule	Beta cell apopt	AF4-AF9 inh	FGF22 binding	ALR inh	Calb FLC	RanGTP-Imp inh	Ecoli rRNA inh	Ecoli rRNA inh OD600	Ecoli rRNA inh RFP	T cruzi inh
Cc1nnc(SCc2ccccc2C#N)n1-c1ccccc1	-7	.	.	-3	-1	-3.9	.	.	.	-10
CCOC(=O)C1=C(c2ccccc2)OC(N)=C(C#N)C1c1ccncc1 (stereo not drawn)	-2	-1.8	i	5	13	2.0	10	3	-0.3	-28

(more compounds)
Molecule	Beta cell apopt	AF4-AF9 inh	FGF22 binding	ALR inh	Calb FLC	RanGTP-Imp inh	Ecoli rRNA inh	Ecoli rRNA inh OD600	Ecoli rRNA inh RFP	T cruzi inh
COC(=O)c1ccc(/C=N/NC(=S)NC(C)C)cc1	-3	-0.6	i	-4	0	1.9	8	8	8.4	2
COC(=O)N1C(=O)[C@](Cc2ccccc2)(c2ccccc2)N1C(=O)OC	4	.	i	12	-8	?	-1	16	11	-12
O=C(NCc1ccc(Cl)cc1)c1noc2c1CCCCC2	-1	.	.	12	-22	1.2	.	.	.	1
COC(=O)c1ccccc1NC(=O)COC(=O)c1cccnc1	-5	.	.	-23	2	-0.4	.	.	.	-5
C/C=C/C(=O)Nc1ccc(N2CCN(c3ccc(C(F)(F)F)cn3)CC2)nc1	0	-0.4	i	-14	0	-1.5	8	1	0.8	-2
CCOc1ccc(C(CC(=O)O)NC(=O)C(Sc2ccccc2)c2ccccc2)cc1 (stereo not drawn)	4	0.5	i	11	20	1.6	-27	-27	-7.7	-24
C=CCN(CC=C)CC(O)Cn1c2ccccc2c2ccccc21 (stereo not drawn)	?	2.6	i	-7	-8	-1.7	-21*	-6.6*	1.1*	11
CCOC(=O)C1CCCN(Cc2c(Cl)cccc2Cl)C1 (stereo not drawn)	-1	4.7	i	-27	-2	0.9	-23*	-10*	-7.1*	23
N#Cc1nc(-c2cccs2)oc1NCc1ccco1	-2	.	.	18	-2	2.1	.	.	.	6
COc1ccc(CNc2ccc3c(c2)ncn3-c2ccccc2OC)cc1	2	.	.	50	-10	29*	.	.	.	26
Cc1cccc2nc(CNC(=O)C3CCC(=O)N(Cc4ccccc4F)C3)cn12 (stereo not drawn)	-5	0.7	i	4	16	-1.5	5	7	-1.9	-5
O=C(NN1CCOCC1)c1ccc(Cl)cc1[N+](=O)[O-]	0	-0.6	i	-7	-2	-0.5	14	18	0.5	3
CCC(C)NS(=O)(=O)c1ccc(OC)c(Cl)c1Cl (stereo not drawn)	-9	.	.	-1	-1	-0.8	.	.	.	5
CCOC(=O)N1CCN(C2CC(=O)N(c3ccc(Oc4ccccc4)cc3)C2=O)CC1 (stereo not drawn)	-2	.	.	1	-6	7.7	.	.	.	-3
COc1ccc(NC(=O)Cn2cc(C(=O)C3CC3)c3ccccc32)cc1	1	-0.5	i	-1	7	-0.9	6	8	-2.4	2
CS(=O)(=O)c1ccc(NS(=O)(=O)c2ccc(Cl)c(C(=O)NC3=NCCS3)c2)cc1	-4	-4.5	i	.	.	.	11	20	-1.3	.
CC1CN(C(=O)CSc2nnc(-c3ccc(Cl)cc3)n2C)CC(C)O1 (stereo not drawn)	-2	.	.	-8	3	-2.7	.	.	.	-4
Cc1coc2c1c(C)cc1oc(=O)c(CC(=O)NCCCN3CCCC3=O)c(C)c12	.	-1.6	i	-15	2	-0.2	.	.	.	-2
c1ccc(-c2nn3c(C4CCCCC4)nnc3s2)nc1	-3	.	.	-1	-3	-1.5	.	.	.	-9
S=C(NCCN1CCOCC1)NC1CCCC1	-4	-1.2	i	-6	51*	-0.4	.	.	.	3
CN1CCN(CC(=O)Nc2nnc(-c3cccs3)s2)CC1	-1	.	.	-3	-1	3.6	.	.	.	12
Cc1ccc(C(=O)C2CCN(CC(=O)Nc3nc(C)cs3)CC2)cc1	1	6.7	i	.	-13	-1.0	-22*	-9.3*	2.1*	-9
CCC(=O)Nc1ccc(C=C(C(C)=O)C(C)=O)cc1	4	-4.9	i	5	5	-1.0	-6	3	4.1	-6
CN(C)/C=C(\C=O)c1onc(-c2ccccc2Cl)c1C#N	-2	-12	i	2	-2	-2.4	-8	2	15	-3
CC(C)OC(=O)c1ccc(NC(=O)c2ccco2)cc1	8	.	.	11	-17	-1.8	.	.	.	-2

3 entries from above, with values under each structure:
Results follow in this order: Beta cell apopt, AF4-AF9 inh, FGF22 binding, ALR inh, Calb FLC, RanGTP-Imp inh, Ecoli rRNA inh, Ecoli rRNA inh OD600, Ecoli rRNA inh RFP, T cruzi inh
> CC1CN(C(=O)CSc2nnc(-c3ccc(Cl)cc3)n2C)CC(C)O1 (stereo not drawn)
  -2, ., ., -8, 3, -2.7, ., ., ., -4
> Cc1coc2c1c(C)cc1oc(=O)c(CC(=O)NCCCN3CCCC3=O)c(C)c12
  ., -1.6, i, -15, 2, -0.2, ., ., ., -2
> c1ccc(-c2nn3c(C4CCCCC4)nnc3s2)nc1
  -3, ., ., -1, -3, -1.5, ., ., ., -9

The results go on.
Molecule	Beta cell apopt	AF4-AF9 inh	FGF22 binding	ALR inh	Calb FLC	RanGTP-Imp inh	Ecoli rRNA inh	Ecoli rRNA inh OD600	Ecoli rRNA inh RFP	T cruzi inh
CCOc1ccc(N2C(=O)CC(N3CCN(C4CCc5ccccc5C4)CC3)C2=O)cc1 (stereo not drawn)	0	.	.	-11	-12	0.1	.	.	.	1
COc1cc2ccccc2cc1C(=O)Nc1sc2c(c1C(N)=O)CCN(C(C)C)C2	112*	1.3	i	-10	-2	47*	.	.	.	16
COc1ccccc1NC(=O)N1CCN(c2ccc3nnc(-c4ccc(F)cc4)n3n2)CC1	6	9.9	i	-5	-4	-2.0	-12	7	2.4	42
OCC[C@@H]1C[C@H](O)[C@@H](O)[C@@]2(CCc3ccccc3CO2)O1	1	-2.1	i	0	2	-1.4	7	12	2.4	-13
CCC(C)NC(=O)c1cc2c(=O)n3cccc(C)c3nc2s1 (stereo not drawn)	2	-3.6	i	20	13	1.8	-1	-4	-0.1	3
CCc1cc(C(c2ccccn2)N2CCN(C)CC2)c(NC(=O)c2ccccc2)s1 (stereo not drawn)	-11	9.0	i	9	-2	-0.4	-14	-9	3.8	-10
CN1C(N)=NC(=O)/C1=C\c1ccc(Br)cc1	3	-1.7	i	.	0	1.3	6	4	-4.6	-6
O=C(COC(=O)C1CCN(c2ccc(C(F)(F)F)cn2)CC1)Nc1ccc(Cl)cn1	2	-1.3	i	-6	1	-1.2	13	6	0.2	-17
Clc1ccccc1Cn1nnc2c(NCC3CC3)ncnc21	2	.	.	-5	35	-1.2	.	.	.	12
COc1cc(OC)c(OC)cc1CNC(=O)CCN1C(=O)c2cccc([N+](=O)[O-])c2C1=O	-3	-0.7	i	-13	-5	2.6	5	8	-0.4	0
S=C(NCCCc1ccccc1)NC1CCCCC1	-1	-9.8	i	7	-23	1.2	-17	-21	-9.9	-4
COc1ccccc1Nc1nc(-c2sc(NC(=O)c3ccccc3)nc2C)cs1	9	-4.8	i	7	-6	-1.3	-1	26	15	-34

Assay outcomes (PubChem)

This is a subset; rates above refer to the full screens.
